High-throughput results (PubChem BioAssay)
UUG fidelity: modulators of start codon recognition fidelity in yeast | S. cerevisiae UUG-firefly luciferase reporter, luminescence/redox ratio | activity score, % at 18.7 µM | 0.13% of 350,000 active;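 active = replicate mean at a twofold rise or more, about +100% in these data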;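 also: firefly luciferase made from a UUG start codon reports start codon fidelity; reporter light over untreated wells divided by growth signal over untreated wells; some hits fall short of that in this replicate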
Env fusion inh: blocks HIV Env-driven cell-cell fusion; HeLa-JRFL Env/CEM21 cell fusion, luciferase; inhibition, % at 12.3 µM; 1.1% of 360,000 active;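 active = mean replicate inhibition score of at least 50 and every replicate individually at or above 50; inconclusive = only one of the two criteria met; inactive = mean below 50 and not all replicates reaching 50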;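 also: 0% = plate neutral controls and 100% = maraviroc near 300 nM; one replicate is shown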
* marks the source's active call; other numbers are inactive results; ? = inconclusive; [ ] = another dose, or the depositor's remark. Only part of the results is shown, so the mix of outcomes need not match the whole.

SMILES | UUG fidelity | Env fusion inh
COc1ccc(S(=O)(=O)N(C)C[C@@H]2Oc3ccc(NS(=O)(=O)c4cccs4)cc3C(=O)N([C@H](C)CO)C[C@H]2C)cc1 | -17 | 29[16.7 µM]
C[C@@H]1CN([C@H](C)CO)C(=O)c2cc(NS(=O)(=O)c3ccc(F)cc3)ccc2O[C@@H]1CN(C)CC1CCCCC1 | 16 | -12[16.7 µM]
CCC(=O)N(C)C[C@H]1Oc2ncc(-c3ccc(F)cc3)cc2C(=O)N([C@@H](C)CO)C[C@H]1C | -5 | 10[16.7 µM]
C[C@H]1CN([C@@H](C)CO)C(=O)c2cc(C#CC(C)(C)O)cnc2O[C@@H]1CN(C)C(=O)C1CCC1 | -4 | -10[16.7 µM]
O=C(C[C@@H]1C=C[C@H](NC(=O)Nc2cc(F)ccc2F)[C@H](CO)O1)Nc1ccc(-c2ccccc2)cc1 | -2 | 12[16.7 µM]
C[C@@H]1CN([C@H](C)CO)C(=O)Cc2cc(NC(=O)c3ccncc3)ccc2O[C@H]1CN(C)S(=O)(=O)c1cn(C)cn1 | -4 | 4[16.7 µM]
C[C@H](CO)N1C[C@H](C)[C@@H](CN(C)C(=O)Cc2ccccc2)Oc2cc(C#CC3CCCC3)ccc2S1(=O)=O | -5 | -14[16.7 µM]
COc1ccccc1S(=O)(=O)Nc1ccc2c(c1)OC[C@@H](C)NC[C@@H](C)[C@@H](OC)CN(C)C2=O | 36 | 3[16.7 µM]
CC(C)NC(=O)N(C)C[C@@H]1Oc2c(NC(=O)Nc3cccc4ccccc34)cccc2C(=O)N([C@H](C)CO)C[C@@H]1C | -7 | -9[16.7 µM]
C[C@@H]1CN([C@H](C)CO)C(=O)c2cc(NC(=O)CCC(F)(F)F)ccc2O[C@@H](C)CCCCO[C@@H]1CN(C)S(=O)(=O)c1ccccc1 | 2 | -11[16.7 µM]
C[C@H]1CN([C@@H](C)CO)S(=O)(=O)c2ccc(C#Cc3ccccc3)cc2O[C@H]1CN(C)S(C)(=O)=O | -3 | 2[16.7 µM]
COc1ccc(NC(=O)N(C)C[C@@H]2OCCCC[C@@H](C)Oc3ccc(NS(=O)(=O)c4ccc(OC)cc4)cc3C(=O)N([C@H](C)CO)C[C@@H]2C)cc1 | -9 | 10[16.7 µM]
COc1ccc(S(=O)(=O)Nc2cccc3c2O[C@H](CN(C)C(=O)Nc2ccccc2)[C@@H](C)CN([C@@H](C)CO)C3=O)cc1 | -2 | 12[16.7 µM]
Cn1cnc(S(=O)(=O)N2C[C@@H](O)COC[C@@H]3O[C@H](CC(=O)N4CCN(c5ccccc5)CC4)CC[C@H]32)c1 | -6 | -2[16.7 µM]
C[C@H]1CN([C@@H](C)CO)C(=O)c2cc(-c3ccc(C#N)cc3)cnc2O[C@H]1CN(C)C(=O)Nc1ccc(F)cc1 | 15 | 10[16.7 µM]

3 entries from above, comma-delimited.
Molecule,UUG fidelity,Env fusion inh
C[C@H](CO)N1C[C@H](C)[C@@H](CN(C)C(=O)Cc2ccccc2)Oc2cc(C#CC3CCCC3)ccc2S1(=O)=O,-5,-14[16.7 µM]
COc1ccccc1S(=O)(=O)Nc1ccc2c(c1)OC[C@@H](C)NC[C@@H](C)[C@@H](OC)CN(C)C2=O,36,3[16.7 µM]
CC(C)NC(=O)N(C)C[C@@H]1Oc2c(NC(=O)Nc3cccc4ccccc34)cccc2C(=O)N([C@H](C)CO)C[C@@H]1C,-7,-9[16.7 µM]

Next part:
SMILES | UUG fidelity | Env fusion inh
C[C@@H]1CN([C@@H](C)CO)C(=O)c2cccc(NC(=O)c3cnccn3)c2O[C@H]1CN(C)Cc1ccccc1 | -8 | -8[16.7 µM]
C[C@H]1CN([C@@H](C)CO)C(=O)c2cc(-c3ccccc3F)cnc2O[C@H]1CN(C)Cc1ccccc1 | 11 | 12[16.7 µM]
O=C(C[C@H]1C=C[C@@H](NC(=O)Nc2cc(F)ccc2F)[C@H](CO)O1)NCc1ccncn1 | -5 | -8[16.7 µM]
C[C@@H]1CN([C@@H](C)CO)C(=O)c2cc(NS(=O)(=O)c3ccc(Cl)cc3)ccc2O[C@@H]1CN(C)Cc1ccc(Cl)c(Cl)c1 | 8 | -31[16.7 µM]
C/C=C/c1ccc2c(c1)O[C@H](CN(C)Cc1ccc(C(=O)O)cc1)[C@@H](C)CN([C@H](C)CO)S2(=O)=O | 7 | 4[16.7 µM]
O=S(=O)(N[C@@H]1CCCN(Cc2ccc(OCCO)cc2)C1)c1cc(C(F)(F)F)ccc1Cl | 4 | -25[16.7 µM]
C[C@H](CO)N1C[C@H](C)[C@@H](CN(C)Cc2cccnc2)Oc2ncc(C#Cc3cccnc3)cc2C1=O | -7 | -15[16.7 µM]
O=C(N[C@@H]1CC[C@H](CCNS(=O)(=O)c2ccc(F)cc2)O[C@@H]1CO)C1CCCC1 | 5 | -12[16.7 µM]
COc1ccc(S(=O)(=O)Nc2ccc3c(c2)C(=O)N([C@H](C)CO)C[C@@H](C)[C@@H](CN(C)C(=O)Nc2ccccc2)O3)cc1 | 14 | -4[16.7 µM]
COc1ccc(S(=O)(=O)N(C)C[C@@H]2OCCCC[C@H](C)Oc3ccc(NC(=O)NC4CCCCC4)cc3C(=O)N([C@@H](C)CO)C[C@@H]2C)cc1 | 12 | 27[16.7 µM]
CCCc1cn(CC[C@@H]2CC[C@H](NS(=O)(=O)c3ccc(-c4ccccc4)cc3)[C@H](CO)O2)nn1 | -10 | 11[16.7 µM]
C[C@@H]1CN([C@@H](C)CO)C(=O)c2cc(NC(=O)Cc3ccccc3)ccc2O[C@@H](C)CCCCO[C@H]1CN(C)S(=O)(=O)c1ccccc1 | 18 | -60[16.7 µM]
Cc1ccc(S(=O)(=O)N(C)C[C@@H]2Oc3ccc(NS(C)(=O)=O)cc3CC(=O)N([C@@H](C)CO)C[C@H]2C)cc1 | 3 | 9[16.7 µM]
CCCC#Cc1ccc2c(c1)O[C@H](CN(C)C(=O)c1cccnc1)[C@H](C)CN([C@H](C)CO)S2(=O)=O | 7 | -13[16.7 µM]
Cc1ccc(S(=O)(=O)Nc2ccc3c(c2)C(=O)N([C@@H](C)CO)C[C@H](C)[C@H](CN(C)C(=O)NC2CCCCC2)OCCCC[C@H](C)O3)cc1 | -2 | -126[16.7 µM]
C[C@H](CO)N1C[C@H](C)[C@@H](CN(C)C(=O)Nc2ccc(F)cc2)OCCCC[C@H](C)Oc2ccc(NC(=O)c3ccncc3)cc2C1=O | 0 | -28[16.7 µM]
C[C@@H]1CCCCO[C@@H](CN(C)C(=O)c2ccccc2)[C@H](C)CN([C@H](C)CO)C(=O)c2cc(NC(=O)c3ccncc3)ccc2O1 | 22 | -25[16.7 µM]
C[C@H](CO)N1C[C@H](C)[C@@H](CN(C)C(=O)C2CCOCC2)Oc2ncc(-c3cccc(F)c3)cc2C1=O | 0 | -6[16.7 µM]
COc1cccc(-c2cnc3c(c2)C(=O)N([C@H](C)CO)C[C@H](C)[C@H](CN(C)CC2CCCC2)O3)c1 | 4 | 2[16.7 µM]
O=C(Nc1ccccc1F)N[C@@H]1CC[C@@H](CCNS(=O)(=O)c2ccc(Cl)cc2)O[C@H]1CO | -5 | -2[16.7 µM]
O=C(N[C@H]1CC[C@@H](CCNS(=O)(=O)c2ccc(F)cc2)O[C@H]1CO)C1CC1 | -5 | 6[16.7 µM]
C[C@H]1CN([C@@H](C)CO)C(=O)Cc2cc(NC(=O)Cn3cnnn3)ccc2O[C@@H]1CN(C)C(=O)Nc1ccc(C(F)(F)F)cc1 | 14 | -8[16.7 µM]
C=CCNC(=O)[C@H]1[C@@H]2C(=O)O[C@@H](c3ccccc3)[C@@H](c3ccccc3)N2[C@@H](c2ccccc2OCCO)[C@]12C(=O)N(C(=O)OCCOC)c1ccc(C#CC3(O)CCCCCC3)cc12 | -12 | 37[16.7 µM]
C[C@H]1CN([C@@H](C)CO)C(=O)c2cc(NS(=O)(=O)c3ccc(F)cc3)ccc2O[C@H]1CN(C)S(=O)(=O)c1ccc(F)cc1 | -3 | 58*[16.7 µM]
N#C[C@@H]1[C@@H](c2ccc(-c3cccnc3)cc2)[C@H](CO)N1C(=O)C1CCC1 | -2 | 5[16.7 µM]
C[C@@H]1CN([C@@H](C)CO)C(=O)c2cc(NS(=O)(=O)c3cccs3)ccc2O[C@@H]1CN(C)Cc1ccccc1 | -20 | -6[16.7 µM]
Cc1ccc(S(=O)(=O)Nc2ccc3c(c2)C(=O)N([C@H](C)CO)C[C@@H](C)[C@@H](CN(C)C(=O)C2CCCCC2)OCCCC[C@H](C)O3)cc1 | 3 | -8[16.7 µM]
N#C[C@@H]1[C@@H](c2ccc(C#Cc3cccc(F)c3)cc2)[C@@H](CO)N1C(=O)C1CCC1 | -8 | 4[16.7 µM]
C[C@H]1CN([C@@H](C)CO)C(=O)c2cc(C3=CCCCC3)cnc2O[C@H]1CN(C)Cc1ccncc1 | 15 | -72[16.7 µM]
CN1C(=O)c2cc(NC(=O)c3ccc(F)cc3)ccc2OC[C@H]2O[C@H](CC(=O)NCC3CC3)CC[C@H]21 | 11 | 0[16.7 µM]

Seven entries from above, set out differently:
| Structure | UUG fidelity | Env fusion inh |
| --- | --- | --- |
| C[C@H]1CN([C@@H](C)CO)C(=O)c2cc(NS(=O)(=O)c3ccc(F)cc3)ccc2O[C@H]1CN(C)S(=O)(=O)c1ccc(F)cc1 | -3 | 58*[16.7 µM] |
| C[C@@H]1CCCCO[C@@H](CN(C)C(=O)c2ccccc2)[C@H](C)CN([C@H](C)CO)C(=O)c2cc(NC(=O)c3ccncc3)ccc2O1 | 22 | -25[16.7 µM] |
| CN1C(=O)c2cc(NC(=O)c3ccc(F)cc3)ccc2OC[C@H]2O[C@H](CC(=O)NCC3CC3)CC[C@H]21 | 11 | 0[16.7 µM] |
| C[C@H]1CN([C@@H](C)CO)C(=O)c2cc(C3=CCCCC3)cnc2O[C@H]1CN(C)Cc1ccncc1 | 15 | -72[16.7 µM] |
| Cc1ccc(S(=O)(=O)Nc2ccc3c(c2)C(=O)N([C@H](C)CO)C[C@@H](C)[C@@H](CN(C)C(=O)C2CCCCC2)OCCCC[C@H](C)O3)cc1 | 3 | -8[16.7 µM] |
| C[C@H](CO)N1C[C@H](C)[C@@H](CN(C)C(=O)C2CCOCC2)Oc2ncc(-c3cccc(F)c3)cc2C1=O | 0 | -6[16.7 µM] |
| COc1cccc(-c2cnc3c(c2)C(=O)N([C@H](C)CO)C[C@H](C)[C@H](CN(C)CC2CCCC2)O3)c1 | 4 | 2[16.7 µM] |

(continued)
SMILES | UUG fidelity | Env fusion inh
C[C@H]1CCCCO[C@@H](CN(C)S(=O)(=O)c2cccs2)[C@@H](C)CN([C@@H](C)CO)C(=O)c2cc(NS(=O)(=O)c3ccc(F)cc3)ccc2O1 | -3 | ?
CN(C)CC(=O)Nc1ccc2c(c1)[C@H]1C[C@H](CC(=O)N3CCOCC3)O[C@@H](CO)[C@H]1O2 | -8 | 10[16.7 µM]
C[C@@H]1CCCCO[C@@H](CN(C)Cc2ccc(C(F)(F)F)cc2)[C@H](C)CN([C@H](C)CO)C(=O)c2cc(NC(=O)Nc3cccc4ccccc34)ccc2O1 | 1 | 20[16.7 µM]
C[C@H]1CN([C@@H](C)CO)C(=O)c2cc(-c3ccncc3)cnc2O[C@H]1CN(C)C(=O)Cc1cccnc1 | -4 | 14[16.7 µM]
C[C@H]1CN([C@@H](C)CO)C(=O)c2cc(Br)cnc2O[C@@H]1CN(C)C(=O)c1ccccc1F | 1 | 2[16.7 µM]
CNC(=O)C[C@@H]1CC[C@H]2[C@H](COc3ccc(NC(=O)c4cnccn4)cc3C(=O)N2C)O1 | -2 | -13[16.7 µM]
COc1ccccc1C(=O)Nc1ccc2c(c1)C(=O)N(C)C[C@@H](OC)[C@H](C)CN[C@@H](C)CO2 | 7 | -8[16.7 µM]
O=C(C[C@H]1C[C@H]2c3cc(NC(=O)CC4CC4)ccc3O[C@H]2[C@@H](CO)O1)NCC(F)(F)F | -17 | 18[16.7 µM]
CCC(=O)N(C)C[C@H]1Oc2cc(-c3ccc(F)cc3)ccc2S(=O)(=O)N([C@@H](C)CO)C[C@@H]1C | 19 | 12[16.7 µM]
COCC#Cc1cnc2c(c1)C(=O)N([C@H](C)CO)C[C@@H](C)[C@@H](CN(C)C(C)=O)O2 | -6 | -51[16.7 µM]
CC(=O)N(C)C[C@H]1Oc2cc(C#C[C@H](C)O)ccc2S(=O)(=O)N([C@@H](C)CO)C[C@@H]1C | -2 | 10[16.7 µM]
C[C@H]1CCCCO[C@H](CN(C)S(=O)(=O)c2ccccc2)[C@@H](C)CN([C@@H](C)CO)C(=O)c2cc(NC(=O)c3ccccc3)ccc2O1 | 13 | -49[16.7 µM]
C[C@H](CO)N1C[C@H](C)[C@H](CN(C)C(=O)Nc2cccc(F)c2)Oc2ncc(C3=CCCC3)cc2C1=O | 1 | -18[16.7 µM]
COC(=O)C[C@H]1CC[C@@H]2[C@H](COc3ccc(NC(=O)NC(C)C)cc3C(=O)N2C)O1 | -2 | 2[16.7 µM]
COc1ccc(S(=O)(=O)Nc2ccc3c(c2)C(=O)N([C@@H](C)CO)C[C@H](C)[C@H](CN(C)C(=O)Nc2ccc(F)cc2)O3)cc1 | -8 | 12[16.7 µM]
Cc1noc(C)c1S(=O)(=O)N(C)C[C@H]1OCCCC[C@@H](C)Oc2ccc(NC(=O)Nc3ccc(F)cc3)cc2C(=O)N([C@@H](C)CO)C[C@H]1C | -11 | -84[16.7 µM]
C[C@@H]1CN([C@H](C)CO)C(=O)Cc2cc(NC(=O)Nc3ccc4c(c3)OCO4)ccc2O[C@H]1CN(C)Cc1ccc(C(=O)Nc2ccccc2N)cc1 | -7 | -9[16.7 µM]
C[C@@H]1CCCCO[C@H](CN(C)C(=O)Nc2ccc3c(c2)OCO3)[C@H](C)CN([C@@H](C)CO)C(=O)c2cc(NS(=O)(=O)c3ccc(F)cc3)ccc2O1 | -11 | 9[16.7 µM]
CNC[C@H]1OCCCC[C@@H](C)Oc2ccc(NS(=O)(=O)c3ccc(Cl)cc3)cc2C(=O)N([C@H](C)CO)C[C@H]1C | 13 | 17[16.7 µM]
